BJeLR viability – kills HRASV12-expressing BJeLR cells | BJeLR (HRASV12) viability, CellTiter-Glo ATP luminescence, 48 h; reference of the scale not given here | inhibition, % (no concentration beside the values) | 300,000 tested, 0.17% active | AID 1554;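 active = replicate mean above 50%; inconclusive = above 50% but judged a plate artefact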;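 note: 50 nL library stock added to about 25 µL; numbers are from one replicate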
Mtb hypoxia rep – inhibitors of hypoxia-regulated fluorescent reporter in Mycobacterium tuberculosis; AID 1159583; M. tuberculosis hypoxia-regulated fluorescent reporter, fluorescence; 300,000 tested, 0.1% active; fluorescence inhibition, % (no concentration beside the values);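 active = 35 to 45% if threefold the growth effect, above 45% if 1.5-fold the growth effect; inactive = the rest, general growth blockers included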;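 note: wells of about 50 µL received 100 nL stock; 0% = vehicle wells and 100% = reference inhibitor wells; whole bacteria with a GFP reporter of the hypoxia response; strong numbers were not always called active; many hits fall short of the cut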
ugtP null kill – growth inhibition of S. aureus ugtP deletion strain; 330,000 tested, 0.54% active; growth inhibition, % (test concentration not listed); S. aureus RN4220 ugtP deletion, OD600 growth, 16 h; some inactives read as strong as hits;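 active = z-score under -3 and OD600 up to 0.15 on both plates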;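 note: plate controls were untreated wells for no effect and antibiotic for full effect; wells of about 80 µL received 100 nL stock; the first replicate is given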
Sa RN4220 lethal – S. aureus RN4220 growth inhibition | OD600, 16 h | inhibition, % (concentration not given with the values) | AID 1259311 | 330,000 tested, 0.33% active;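 active = z-score of -3 or lower and OD600 up to 0.18 on both plates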;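 note: plate controls were untreated cells for no effect and reference antibiotic for full effect; stock transfer was 100 nL into about 80 µL; one replicate is shown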
PrP UTR inh – inhibition of PrP 5' UTR reporter expression; 340,000 tested, 0.35% active; inhibition, % (concentration not given with the values); cell-based PrP 5' UTR mRNA reporter, plate reader;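 active = every replicate at 50% or more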;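 note: 0 = median of the neutral control wells; tested in H4 reporter cells; numbers are from one replicate; inactives centre near -14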
Autofluor counter – counter-screen for toxin protease inhibitors: compound fluorescence; fluorescence intensity (no concentration beside the values); compound autofluorescence counterscreen, microsphere flow cytometry; hits give high values; 360,000 tested, 3.1% active;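 active = at least 3 SD above the mean of all compounds, about 16000 in these data; inconclusive = too few beads counted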;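 note: 100 nL of 1 mM stock went into each well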
Mtb hypoxia rep growth – recorded beside Mtb hypoxia rep, whose call it bears; growth inhibition, %; measured here: M. tuberculosis growth (absorbance);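 0% = vehicle and 100% = reference antibiotic; read after six days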
* = called active by the depositor; ? = inconclusive; . = not tested or not shown.

Start of the listing, in advance, four compounds:
SMILES	BJeLR viability	Mtb hypoxia rep	Mtb hypoxia rep growth	ugtP null kill	Sa RN4220 lethal	PrP UTR inh	Autofluor counter
COC(=O)C1=C(C)NC2=C(C(=O)CC(c3cccs3)C2)C1c1ccsc1 (stereo not drawn)	-1	.	.	.	.	-10	8527
C=CCOc1ccc(-c2nc3c(c(=O)[nH]c(=O)n3CCCC)n2C)cc1Br	2	7	12	8	3.2	-21	4173
CN(C)S(=O)(=O)c1ccc(C(=O)NCC(=O)N/N=C/c2ccccc2Cl)cc1	-2	.	.	.	.	-12	2534
O=C1CC(N2CCSCC2)C(=O)N1c1ccccc1 (stereo not drawn)	8	-4	6	-2	1.0	-4	4524

This part in full (from the top)
SMILES	BJeLR viability	Mtb hypoxia rep	Mtb hypoxia rep growth	ugtP null kill	Sa RN4220 lethal	PrP UTR inh	Autofluor counter
COC(=O)C1=C(C)NC2=C(C(=O)CC(c3cccs3)C2)C1c1ccsc1 (stereo not drawn)	-1	.	.	.	.	-10	8527
C=CCOc1ccc(-c2nc3c(c(=O)[nH]c(=O)n3CCCC)n2C)cc1Br	2	7	12	8	3.2	-21	4173
CN(C)S(=O)(=O)c1ccc(C(=O)NCC(=O)N/N=C/c2ccccc2Cl)cc1	-2	.	.	.	.	-12	2534
O=C1CC(N2CCSCC2)C(=O)N1c1ccccc1 (stereo not drawn)	8	-4	6	-2	1.0	-4	4524
Cc1sc(N)c(C(=O)c2ccccc2)c1C	-3	7	9	3	3.2	-2	3674
CCc1c(C(=O)NN=Cc2ccc(C)o2)csc1C	.	5	6	-12	-1.6	.	.
CC1CN(C(C)CO)C(=O)Cc2cc(NS(C)(=O)=O)ccc2OC1CN(C)CC1CC1 (stereo not drawn)	.	11	9	-10	1.7	.	.
COc1ccc(-c2csc(NC(=O)CSc3n[nH]c(C)n3)n2)cc1	-12	-4	-1	-4	0.4	-26	3003
Cc1ccc(C(C)C)c(OCC(O)CN2CCc3ccccc3C2)c1 (stereo not drawn)	3	6	-4	-4	2.7	-17	4297
Cc1ccc(C)c(-c2ccc(=O)n(Cc3ccc(F)cc3Cl)n2)c1	-1	7	-2	0	-1.1	-33	3547
N#Cc1c(Nc2ccccc2C(F)(F)F)s[nH]c1=O	0	2	7	4	6.3	.	4624
O=C(c1ccc(Cl)c(S(=O)(=O)N2CCOCC2)c1)N(c1ccccn1)C1CCCCC1	-8	14	6	1	-0.7	-13	4083
S=C(NCCc1ccc(Cl)cc1)NCc1ccccc1	-2	8	-3	-6	-3.2	-21	.
CCOc1ccc(OCC)c(NS(=O)(=O)c2ccc3c(c2)CCN3C(=O)C2CCC2)c1	5	-9	3	-8	6.9	-22	10685
CCC(C)(C)NC(=O)C(c1ccc(F)cc1)N(Cc1ccc(OC)cc1)C(=O)c1cnccn1 (stereo not drawn)	-7	-1	-7	1	1.9	-51	4668
Cc1ccc(C)c(Nc2cc(C)nc3ccccc23)c1	7	2	4	-22	-1.0	-9	3148
N#CC1=C(N)N(c2ccc(F)cc2)C2=C(C1c1ccc(O)cc1)S(=O)(=O)CC2 (stereo not drawn)	.	-7	13	12	5.7	-5	6206
COc1cccc(NC(=O)c2cccc(N3C(=O)C4CCC(C)CC4C3=O)c2)c1 (stereo not drawn)	2	5	1	-7	1.0	-19	3683
CN(C(=O)CSc1ncnc2sc(-c3ccccc3)cc12)C1CCS(=O)(=O)C1 (stereo not drawn)	2	-4	6	-3	-1.7	-2	2037
Cc1c(NC(=O)Nc2cc(Cl)ccc2Cl)c(=O)n(-c2ccccc2)n1C	2	3	-2	2	0.3	-12	7223
CSCCC(NS(=O)(=O)c1ccc(Br)cc1)C(=O)OCC(=O)NC1CC1 (stereo not drawn)	5	3	-1	22	8.2	-17	3899
CC1CC(C)(C)NC(=S)N1CC(=O)N1CCN(Cc2ccccc2)CC1 (stereo not drawn)	0	11	5	2	14	-4	4662
COc1ccc(C(=O)/C=C/Nc2ccc(S(N)(=O)=O)cc2)cc1OC	12	-11	-16	2	-0.5	-7	4985
CC(C)CCNc1nc2c(c(=O)n(Cc3cccc(F)c3)c(=O)n2C)n1C	0	-7	-1	-36	-9.2	0	4326
CCOc1ccc(C2=Nn3c(nnc3-c3ccccc3)SC2)cc1Cl	-12	-6	-4	-13	-3.1	-16	8116
SMILES	BJeLR viability	Mtb hypoxia rep	Mtb hypoxia rep growth	ugtP null kill	Sa RN4220 lethal	PrP UTR inh	Autofluor counter
CCOC(=O)C1CCN(C(=O)CCn2c(=O)[nH]c3ccsc3c2=O)CC1	.	6	7	1	0.4	-7	?
S=c1[nH]nc(Nc2ccccc2)s1	-1	10	2	0	7.9	-13	4703
CC(C)NC(=O)CN(C(=O)CCC(=O)Nc1ccccn1)c1ccc(F)c(Cl)c1	2	.	.	-1	1.1	-23	4094
O=C(CSc1nc2[nH]c(=O)cc(O)c2s1)NCCc1ccccc1	.	2	0	8	6.5	-15	7568
CC(=O)C1CCCN(C(=O)c2ccc3nc(Cc4cccc(Cl)c4)oc3c2)C1 (stereo not drawn)	-3	-3	7	-2	0.6	1	5920
CCc1n[nH]c(=S)n1N=C/C(C)=C\c1ccccc1	.	12	3	15	7.2	.	.
CCN1C(=O)C2C(c3ccc(C)cc3)N3C(=O)N(c4cccc(F)c4)C(=O)[C@@]3(C)C2C1=O (stereo partly drawn)	.	5	4	3	7.5	.	.
Cc1ccc(C2=CC(=O)CC(C)(C)C2)cc1	.	-1	-3	3	3.1	-23	2878
CC(C)CCN1C(Nc2ccccc2)=NCC1CC(C)C (stereo not drawn)	.	5	10	2	5.2	.	.
CCCN(CCC)CCCNC(=O)c1cn(CC)c2ccc(S(=O)(=O)N(C)C3CCCCC3)cc2c1=O	13	5	10	6	2.7	-8	5078
O=C(Nc1nc(-c2ccccn2)cs1)c1ccc(Br)s1	5	25	23	34	54	29	9200
O=c1[nH]c(N2CCc3ccccc32)nc2c1CCCC2	2	.	.	-5	5.0	-32	5457
Cc1nc(C)c(C(=O)C2=C(O)C(=O)N(CCN3CCOCC3)C2c2ccco2)s1 (stereo not drawn)	1	.	.	-4	0.2	-28	2728
O=C(CCCN1C(=O)C(c2ccccc2)Oc2cccnc21)NCc1ccccc1Cl (stereo not drawn)	-1	-5	2	4	-1.2	-11	5271
COc1ccc(C(=O)OCC(=O)N2C(C)CCCC2C)cc1S(=O)(=O)N1CCOCC1 (stereo not drawn)	.	2	-1	2	0.6	3	2980
CN(C)C(CNC(=O)c1cc2ccccc2o1)c1ccco1 (stereo not drawn)	.	6	5	5	3.4	-31	3678
Cn1c(-c2ccccc2)cc(=O)n1-c1ccccc1	.	7	5	-2	3.4	-14	3743
CCOC(=O)c1c(NC(=O)CN2CCCc3ccccc32)sc(C)c1CC	-2	-10	-4	3	3.3	-10	4903
CCc1nc(SCc2ccccc2C)n[nH]1	-2	4	1	12	2.7	-25	2921
COc1ccc(-c2c(C)nn(Cc3ccccc3)c2N)cc1	-5	4	-2	13	1.4	-11	8338
Cc1cc(O)c(Sc2ccccc2)c(=O)o1	4	7	3	8	2.1	.	3661
Cc1ccc(C(=O)OC(C)CN2CCOCC2)cc1 (stereo not drawn)	-5	.	.	.	.	-18	4119
CC(Sc1nc2ccccc2s1)C(=O)NCc1ccc2c(c1)OCO2 (stereo not drawn)	0	10	10	10	1.7	-50	2698
COc1ccc(C)cc1NC(=O)COC(=O)c1ccc2c(c1)OCO2	.	-4	-2	-5	-3.3	-5	2993
Cc1nnc(SCC(=O)NC2CCCC2)n1-c1ccccc1	.	4	-2	1	-0.8	-17	3495
SMILES	BJeLR viability	Mtb hypoxia rep	Mtb hypoxia rep growth	ugtP null kill	Sa RN4220 lethal	PrP UTR inh	Autofluor counter
Cc1ccc(-c2n[nH]c(=S)n2/N=C/c2cccn2C)cc1	-1	.	.	.	.	7	1994
COc1ccccc1CNc1ccc2nnc(CCNC(=O)c3ccc(C)cc3)n2n1	13	8	-5	2	2.1	-12	5041
CCSc1nnc(NC(=O)CSC2=NCCS2)s1	.	17	5	5	3.7	-28	3912
COc1cc(C=O)ccc1OCCCOc1ccccc1C(=O)O	6	.	.	7	7.3	-48	3558
CCC(=O)Nc1c(C)c(CC)nc2ccccc12	-18	-4	5	-3	-0.5	-19	16775*
O=C(COCC(=O)N/N=C/c1ccc(F)cc1)N/N=C/c1ccc(F)cc1	6	.	.	.	.	-15	2319
O=C(NC1CCCCC1)C(c1ccncc1)N(C(=O)c1csnn1)c1cccc(F)c1 (stereo not drawn)	-4	-1	-2	0	1.9	-9	3546
CN(C)CCNc1c2c(nc3ccccc13)CCC2	12	8	6	1	1.7	-19	3639
Cc1ccc(C(=O)CSC2=C(C#N)C(c3ccco3)C3=C(CC(C)(C)CC3=O)N2)cc1 (stereo not drawn)	0	.	.	7	-9.1	-8	3634
COc1ccccc1NC(=O)NCC1CC1(Cl)Cl (stereo not drawn)	1	6	-5	-1	-0.6	11	5161
C=CCn1c(COc2ccc(F)cc2)nnc1SCC(=O)Nc1cccc(S(N)(=O)=O)c1	-3	6	-2	4	2.4	-27	4784
Cc1cc(NC(=O)COc2cccnc2[N+](=O)[O-])no1	2	4	9	1	8.5	1	4185
Cc1ccccc1NC(=O)CN(C)S(=O)(=O)c1ccc(-c2ccc(=O)[nH]n2)s1	6	-9	6	-3	3.4	5	5951
Cc1onc(-c2c(F)cccc2Cl)c1C(=O)N1CCSCC1	1	6	8	3	1.1	.	5974
Cn1c(N)c(C(=O)NCc2ccccc2Cl)sc1=S	.	.	.	-6	1.0	-26	2892
O=C(Nc1cc(S(=O)(=O)N2CCOCC2)ccc1N1CCCCC1)c1ccccc1Br	.	1	7	-1	-1.4	-6	3594
S=C(NCc1ccccc1)NCc1cccc(Cl)c1	.	-4	-7	-4	-4.2	-10	5244
CCOC(=O)C1(Cc2ccc(O)cc2)NC(c2ccco2)C2C(=O)N(c3ccccc3F)C(=O)C21 (stereo not drawn)	-2	1	-3	3	3.8	-28	6678
O=C(Nc1nccs1)c1ccc2c(c1)OCO2	-1	.	.	.	.	-80	5143
Cc1ccc(NS(=O)(=O)c2ccc(C)c(C(=O)Nc3ccc(S(=O)(=O)Nc4onc(C)c4C)cc3)c2)cc1	.	8	7	4	5.9	-14	3598
OC1(c2cccc(C(F)(F)F)c2)CCN(c2ncnc3c2[nH]c2ccc(F)cc23)CC1	.	-7	7	-26	15	-4	3400
Cc1ccc(N(CC(O)CON=C2c3ccccc3-c3ccccc32)S(C)(=O)=O)cc1 (stereo not drawn)	3	7	5	-19	2.5	-15	10676
COc1cccc(CSc2nccn2C)c1	2	1	0	9	5.9	-22	.
Cc1ccccc1-c1nc(CS(=O)CC(=O)N2CCC3(CC2)OCCO3)c(C)o1 (stereo not drawn)	-8	-1	1	-3	5.1	-37	6212
CCCCC(=O)NN=C(C)c1cccc(NC(=O)C2CC2)c1	.	15	19	-1	-7.3	.	.
SMILES	BJeLR viability	Mtb hypoxia rep	Mtb hypoxia rep growth	ugtP null kill	Sa RN4220 lethal	PrP UTR inh	Autofluor counter
CCOC(=O)C1=C(C)N(CCCCCC(=O)O)C(=O)NC1c1ccccc1Cl (stereo not drawn)	-1	3	8	5	7.5	-15	4039
Cc1cccc(NC(=O)COc2nsnc2N2CCOCC2)c1	-3	.	.	-6	1.4	-29	4398
c1csc(CNCc2ccncc2)c1	6	5	0	5	-4.4	-22	4617
CCCCNC(=S)N/N=C/c1ccc(OCC(=O)Nc2c(C)cc(C)cc2C)c(OC)c1	4	.	.	.	.	6	2681
CCCCC(=O)C1CCN(Cc2ccccc2)CC1	1	.	.	-2	0.4	-6	7263
O=C1C2C(C(=O)N1/N=C/c1ccc(N3CCCCC3)o1)C1C=CC2C12CC2 (stereo not drawn)	4	.	.	.	.	-14	7066
CCC(C)NS(=O)(=O)c1ccc(NC(C)=O)cc1 (stereo not drawn)	4	18	5	1	4.8	-25	5865
CCN(CC)c1ccc(S(=O)(=O)N2CCOCC2)cc1NC(=O)CSc1nncn1C	.	7	1	9	5.1	-11	8394
O=C(Nc1ccc2c(c1)CCC2)c1cccc(S(=O)(=O)N2CCN(c3ccccc3)CC2)c1	0	2	11	-9	-1.4	-5	3676
O=C(O)c1ccccc1-c1cc2ccccc2[nH]1	-5	-5	4	7	8.9	-10	5916
N#Cc1c(Cl)nc(-c2ccncc2)nc1-c1ccccc1	-10	10	-7	-2	-0.4	-14	3881
O=C1CCCC(=NNC(=O)c2ccc(NS(=O)(=O)c3ccc(Br)cc3)cc2)C1	.	5	3	-4	4.1	.	.

From PubChem BioAssay

Rows are unselected (roughly 3.9% active in at least one column).
